StopGo RLuc = lowers the Renilla signal of an FMDV 2A StopGo reporter | Potency, µM (series often up to 57.5 µM), for inactives: at the top dose signal change, negative = less light | HEK cells with a luciferase reporter of 2A StopGo recoding | AID 1745857 | 120,000 tested, 0.32% active; active means well fitted falling curve with a large enough effect; inconclusive means small, poorly fitted or top-dose-only effect; inactive means no such curve, though single readings can be large or run the other way; note: nearly all actives have a fitted effect of over 55% in size; overnight with compound
StopGo FLuc = FMDV 2A StopGo reporter, firefly signal; 120,000 tested, 0.23% active; HEK cells with a luciferase reporter of 2A StopGo recoding; Potency, µM (titrated, usually from 57.5 µM), inactives show at the highest dose signal change, negative = less light; active = well fitted falling curve with a large enough effect; inconclusive = small, poorly fitted or top-dose-only effect; inactive = no such curve, though single readings can be large or run the other way; note: nearly all actives have a fitted effect of over 60% in size; overnight with compound
* = called active by the depositor; u = inconclusive; & = joins results of further samples; [ ] = another dose, or the depositor's remark. % is set by controls: 0 for no effect and ±100 for the full control effect; potency is the fitted concentration of half-maximal effect. The list is partial. The share of hits here may be higher or lower than overall.

Results follow in this order: StopGo RLuc, StopGo FLuc
> COc1cc(-c2noc(CCC(=O)Nc3cc(C)ccc3C)n2)cc(OC)c1OC
 : -7%, u
> O=C(Nc1nc2n(n1)C(c1ccc(F)cc1)C=C(c1ccccc1)N2)c1ccc(Cl)cc1 (centres undefined)
 : -3%, 14%
> Fc1ccc(C(c2nnc(-c3ccccc3)o2)N2CCN(c3ccccc3)CC2)c(Cl)c1 (centres undefined)
 : 6%, -14%
> Cc1ccc(NC(=O)C2CCCN(S(=O)(=O)c3ccc4c(c3)CCCC(=O)N4)C2)cc1Cl (centres undefined)
 : -27%, u
> CC(C)Oc1ccc(CNC(=O)c2ncoc2-c2cccs2)cc1
 : 2%, 16%
> Cc1cccc(CCNC(=O)CCc2c(C)nc3ncnn3c2C)c1
 : -14%, -22%
> O=C(NC1CCCCC1)c1ccc2c(Cl)c3c(nc2c1)CCCC3
 : 7%, 112%[activator]
> COc1ccc(S(=O)(=O)NCc2nc(-c3ccccc3)no2)cc1
 : -8%, -8%
> O=C(N/N=C/C=C/c1ccccc1)c1csc2ccccc12
 : -7%[1.06 µM], 0%
> N#CCN(CC#N)C(=O)Cc1cccs1
 : -1%, 7%
> CCc1cc2c(CN3CCN(c4ccccc4)CC3)cc(=O)oc2cc1O
 : -6%&-30%, -12%&-28%
> COc1ccc(OCC(=O)Nc2ccccc2C(=O)OCc2cc(=O)n3nc(C)sc3n2)cc1
 : -6%, -7%
> COc1ccccc1CNC(=O)COCc1cc(-c2ccc3c(c2)OCO3)on1
 : 7%, -19%
> O=C(NCc1ccccc1)c1cc2ccccc2[nH]1
 : 0%, 7%
> NC(=O)C1CCN(C(=O)c2ccccc2NC(=O)c2nsc3ccccc23)CC1
 : 20%, 64%[activator]
> O=C(O)c1cccc(OCc2ccc(Cl)cc2)c1
 : 3%, 0%
> COc1cccc(NC(=O)c2sc3nc4c(c(-c5ccco5)c3c2N)CCCCC4)c1
 : 4%, 0%
> Cc1ccc(-c2nc3cccc(C)c3nc2-c2ccc(C)cc2)cc1
 : 8%, 18%
> Cc1cccc(-c2nc(C(N)=O)c3c(n2)n(-c2ccc4c(c2)OCO4)c(=O)n3C)c1
 : -15%, 0%
> N#CC1(c2ccc(N)cc2)CCCC1
 : 9%, 17%
> Cc1ccc(CN(C)C(=O)CN2CCN(c3ccc([N+](=O)[O-])c4cnccc34)CC2)c(C)c1
 : -29%, -18%
> Cc1ccc(-c2nc(C#N)c(N3CCN(C(=O)c4ccco4)CC3)o2)cc1
 : -4%, -3%
> CNC(=O)CNc1nc(-c2ccsc2)nc2ccccc12
 : 13%, 0%
> COc1cccc2cc(-c3nc(-c4ccccc4F)no3)c(=O)oc12
 : -18%, 18%
> CS(=O)(=O)Oc1ccc2c(=O)c(-c3ccc(Br)cc3)coc2c1
 : 19%, 229%[activator]
> CCN1CCN(C(C)CNC(=O)NCc2nc(C)cs2)CC1 (centres undefined)
 : -7%, -12%
> Cc1c(Cl)cccc1NC(=O)c1ccc(C(=O)Nc2cccc(Cl)c2C)cc1
 : 4%, -6%
> CCOC(=O)c1ccc(NC(=O)CSc2nc3ncc(Br)c(C)c3[nH]2)cc1
 : -12%, -11%
> Cc1ccccc1CS(=O)(=O)N1CCC(C(=O)N2CCN(c3cccc(Cl)c3)CC2)CC1
 : u, u
> CC(C)c1nn2c(=O)cc(COC(=O)c3ccc(NC(=O)CCc4ccccc4)cc3)nc2s1
 : -4%, -7%
> COc1cc(C(=O)Nc2ccc3oc(-c4ccccc4C)nc3c2)cc(OC)c1OC
 : 1%, -5%
> Cc1ccc(NC(=O)C2CCCN2S(=O)(=O)c2cccc3nsnc23)cc1Cl (centres undefined)
 : u, u
> Cc1cc(C)cc(NC(=O)Cn2c(=O)oc3cc(S(=O)(=O)N4CCCC4)ccc32)c1
 : -1%, 0%
> COc1ccc(NC(=O)CSc2nnc(-c3ccc(C)cc3)o2)cc1
 : 7%, 63%[activator]
> N#Cc1ccc(NC(=O)NCc2cccnc2)cc1
 : u, u
> CCOC(=O)C(NC(=O)CCNC(=O)c1ccccc1)C(=O)OCC
 : 2%, -1%
> Cc1cc(=O)n2nc(N3CCC(C(=O)NCc4ccccc4F)CC3)sc2n1
 : 0%, -7%
> Cc1cc(C)cc(Nc2ncnc3sc4c(c23)CCCC4)c1
 : -11%, 0%
> Cc1cccc(NC(=O)C2CCN(S(=O)(=O)c3cccc4nsnc34)CC2)c1
 : -6%, -11%
> COc1ccc2cc(C(=O)N3CCC(C(N)=O)CC3)[nH]c2c1
 : 3%, 66%[activator]
> CCN(CC)C(=O)C1=C(C)Nc2nc3ccccc3n2C1c1ccc(Br)cc1 (centres undefined)
 : -12%, -12%
> Cc1cc(C)cc(C(=O)Nc2c(C(=O)Nc3ccccc3F)oc3ccccc23)c1
 : 0%, 17%
> CCOC(=O)c1c(NC(=O)CC)sc2c1CCCC2=O
 : 4%, 0%
> Cc1cccc(NC(=O)c2ncoc2-c2ccco2)c1C
 : 6%, 0%
> N#Cc1c(-c2ccccc2)cc(-c2cccs2)nc1SCS(=O)Cc1ccccc1 (centres undefined)
 : -2%, -13%
> CC(OC(=O)c1cn(C)c2ccccc12)C(=O)N(C)c1ccccc1 (centres undefined)
 : 95%[activator], 12%
> Cn1c(SCC(=O)Nc2ccc(Cl)cc2)nc(O)cc1=O
 : -3%, 14%
> CCN(CC)S(=O)(=O)c1ccc(N2CCOCC2)c(NC(=O)c2[nH]c(C)c(C(C)=O)c2C)c1
 : 285%[activator], 184%[activator]
> O=C(Nc1ccc(-c2nc3ccccc3o2)cc1)c1cccc([N+](=O)[O-])c1
 : -12%, 171%[activator]
> O=C(OCc1cc(=O)n2nc(-c3cccs3)sc2n1)c1cccc(Cl)c1
 : -11%, -5%
> Cc1ccc(Sc2c(C)nn(C(=O)c3ccc(Br)cc3)c2C)cc1
 : -15%, -1%
> O=C(NCc1ccccc1Cl)c1ccc2oc(=O)n(Cc3ccccc3)c2c1
 : 86%[activator], 5%
> CC(C)c1noc(-c2ccccc2OCC(=O)NCc2ccc(Cl)cc2)n1
 : -2%, -4%
> CCOC(=O)C1CCN(C(=O)CCS(=O)(=O)c2cc3c(cc2Cl)NC(=O)CO3)CC1
 : -9%, -12%
> O=c1oc2ccc(Cl)cc2cc1-c1csc(Nc2ccc(F)cc2)n1
 : 9%, 24%
> COc1ccc(-c2cc(C(=O)O)c3c(C)cc(C)cc3n2)cc1
 : -9%, 23%
> O=S(Cc1ccc(Cl)cc1)Cc1cccc(Cl)c1 (centres undefined)
 : 9%, 9%
> O=C(O)c1nnn(-c2cccc(Br)c2)c1C(F)(F)F
 : 2%, 17%
> Cc1nn(C)c(C)c1CCC(=O)Nc1nc(-c2ccc(F)c(F)c2)c(C)s1
 : u, u
> O=C(Nc1ccc(S(=O)(=O)N2CCCC2)cc1)c1cc(-c2cccc(F)c2)no1
 : -8%, -10%

Ordered by number of heavy atoms (rising): part of the list above.
Results follow in this order: StopGo RLuc, StopGo FLuc
> O=C(O)c1nnn(-c2cccc(Br)c2)c1C(F)(F)F
 : 2%, 17%
> Cn1c(SCC(=O)Nc2ccc(Cl)cc2)nc(O)cc1=O
 : -3%, 14%
> COc1ccc2cc(C(=O)N3CCC(C(N)=O)CC3)[nH]c2c1
 : 3%, 66%[activator]
> CC(OC(=O)c1cn(C)c2ccccc12)C(=O)N(C)c1ccccc1 (centres undefined)
 : 95%[activator], 12%
> O=C(OCc1cc(=O)n2nc(-c3cccs3)sc2n1)c1cccc(Cl)c1
 : -11%, -5%
> Cc1cc(C)cc(NC(=O)Cn2c(=O)oc3cc(S(=O)(=O)N4CCCC4)ccc32)c1
 : -1%, 0%

The list goes on:
Results follow in this order: StopGo RLuc, StopGo FLuc
> N#Cc1ccc(C(=O)NCc2coc(-c3cccs3)n2)cc1
 : -7%, -14%
> CCc1cc2cc(OC)c(OC)cc2c(Cc2ccccc2)n1
 : 9%, -10%
> N#Cc1ccc(CS(=O)(=O)Cc2ccc(Cl)cc2Cl)cc1
 : 0%, 0%
> O=C(NCCC1=CCCCC1)c1ccc2c(c1)sc1nc(-c3ccc(F)cc3)cn12
 : -9%, 35%[activator]
> Cc1ccc(Cn2cc(CCC(=O)NCc3ccccc3F)c3ccccc32)cc1
 : 10%, -16%
> Cc1cc(C)cc(NS(=O)(=O)c2ccc(N3CCCCS3(=O)=O)cc2)c1
 : 95%[activator], u
> COc1ccc(NC(=O)C(=O)c2c[nH]c3ccccc23)cc1
 : 24%, 241%[activator]
> O=C(NCC1(c2ccccc2)CCCC1)C(=O)Nc1cccc(C(F)(F)F)c1
 : 8%, -3%
> CCCC(NC(=O)C1CCC1)C12CC3CC(CC(C3)C1)C2 (centres undefined)
 : -12%, 9%
> Cc1ccc(S(=O)(=O)NC2CCN(C(=O)Cc3cccc(F)c3)CC2)cc1
 : 113%[activator], 1%
> Nc1nccnc1C(=O)NCCC(c1ccccc1)c1ccccc1
 : u, u
> Cc1cc(C)c(NC(=O)CSc2ccc(-c3ccccn3)nn2)c(C)c1
 : -8%, -15%
> CCCc1cc(=O)oc2cc(OCC(=O)c3ccc(OC)cc3)ccc12
 : -2%, -3%
> CC(=O)c1cccc(Nc2nn(-c3ccc(OC(F)(F)F)cc3)nc2C(C)=O)c1
 : -12%, 27%
> COc1ccc2c(c1)-c1nc(NC(=O)c3ccc(Cl)cc3)sc1CC2
 : 4%, 7%
> Cc1ccc(C(=O)c2oc3cc(NC(=O)c4ccco4)ccc3c2C)cc1
 : -6%, 89%[activator]
> COC(=O)C(C)Oc1ccc2c(=O)c(-c3ccc4c(c3)OCCO4)coc2c1 (centres undefined)
 : -2%, 21%
> COc1ccc(-c2c(C)oc3cc(OCCN4CCCCC4)ccc3c2=O)cc1
 : -12%, -5%
> c1ccc(CCNCc2ccco2)cc1
 : -5%, 5%
> Cc1cnc(NC(=O)Cc2cnc(-c3ccccc3F)s2)s1
 : -1%, 5%
> O=C(CSc1nc2cc(C34CC5CC(CC(C5)C3)C4)ccc2o1)c1ccccc1
 : -5%, 12%
> CCC1CCc2sc(C(=O)N3CCN(c4ncccn4)CC3)cc2C1 (centres undefined)
 : 3%, 31%
> CCOC(=O)C1CCCN(C(=O)CSc2nnc(-c3ccc(C)cc3)n2N)C1 (centres undefined)
 : -9%, 3%
> Cc1scc(C(=O)NNC(=S)NC(C)C)c1C
 : 37%[activator], 39%[activator]
> Cc1cc(NC(=O)C(C)OC(=O)/C(=C/c2cccs2)c2cccs2)on1 (centres undefined)
 : -6%, 6%
> CCN(c1cccc(C)c1)C(CNS(=O)(=O)c1ccccc1)c1ccccc1 (centres undefined)
 : 382%[activator], -4%
> CSCc1ccc(C(=O)Nc2cccc(F)c2)o1
 : -24%, 103%[activator]
> Cc1cc(C)cc(Nc2nc(C)c(C(=O)N(C)C)s2)c1
 : 7%, 49%[activator]
> COc1ccc(C(=O)NCC(C)OC23CC4CC(CC(C4)C2)C3)cc1 (centres undefined)
 : -5%, -3%
> CCOc1c(Cl)cc(/C=C/C(=O)c2ccc(OC(F)F)cc2)cc1OC
 : -5%[1.06 µM], 34%[activator]
> COc1ccc(CCNC(=O)CCc2c(C)nc3c(c(C)nn3-c3ccc(C)c(C)c3)c2C)cc1OC
 : -7%, -21%
> Cn1c(CCNC(=O)c2ccccc2F)nnc1SCC(=O)N1CCOCC1
 : 0%, 4%
> CCc1ccccc1Nc1nn2c(=O)c3ccc(C(=O)NC(C)C)cc3nc2s1
 : -11%, -9%
> Cc1ccc(-n2nnnc2SC(C(=O)N2CCCCC2)c2ccccc2)c(C)c1 (centres undefined)
 : 25%, -3%
> Cc1cccc(Cn2c(=O)n(CCc3ccccc3)c(=O)c3sc4ccccc4c32)c1
 : -7%, 26%
> O=C(CN1C(=O)CC2(CCCCC2)C1=O)c1c[nH]c2ccccc12
 : 5%, 51%[activator]
> O=S(=O)(Nc1nc2ccccc2nc1Nc1ccc(F)cc1)c1cccc2nsnc12
 : 63%[activator], 20%
> CCCn1nc(C(=O)Nc2ccc(S(=O)(=O)NC(C)C)cc2)c2ccccc2c1=O
 : 156%[activator], 16%
> Cc1c(C(=O)Nc2ccc(-n3c(C)nc4ccccc4c3=O)cc2)cccc1[N+](=O)[O-]
 : -17%, 5%
> Cc1ccc(Nc2nnc(SC(C)C#N)s2)cc1 (centres undefined)
 : 11%, 29%
> CCC(C)NC(=S)NCCc1ccccc1 (centres undefined)
 : 57%[activator], 167%[activator]
> CC(NC(=O)C1CCN(C(=O)c2cccc3ccccc23)CC1)c1ccc(F)cc1F (centres undefined)
 : 36%[activator], -10%
> CCc1cc(=O)[nH]c(-n2nc(C)cc2NC(=O)c2cccc3ccccc23)n1
 : -1%, 7%
> CCOc1cc2c(cc1/C=C1\NC(=O)NC1=O)OCO2
 : 7%, 18%
> O=C(Oc1ccc2c(=O)c(-c3ccccc3)coc2c1)c1ccccc1Cl
 : 16%, 166%[activator]
> CC(NC(=O)Cc1ccc(NC(=O)N2CCSc3ncccc32)cc1)c1ccccc1 (centres undefined)
 : -5%, -9%
> COc1ccc(C(=O)NCC(c2ccc(N(C)C)cc2)N2CCc3ccccc32)cc1 (centres undefined)
 : 11%, 0%
> N#Cc1c(N)nc2c(c1-c1ccc(OCc3ccccc3F)cc1)c(=O)nc1sccn12
 : -8%, -6%
> Cc1cc(N(CCO)Cc2ccccc2)n2nc(-c3ccc(C(C)(C)C)cc3)nc2n1
 : -16%, -2%
> COc1ccc(OC)c(NC(=O)CN2C(=O)CC(c3ccco3)Sc3ccccc32)c1 (centres undefined)
 : 95%[activator], -2%
> COc1cc(CNCCSc2nnnn2C)ccc1OCc1c(F)cccc1Cl
 : 8%, 4%
> Cc1ccccc1CCNC(=O)C(C)C
 : 11%, 0%
> CCCOc1ccc(-c2nc(C#N)c(N3CCN(C(=O)c4ccco4)CC3)o2)cc1
 : 5%, 12%
> Cc1cc(=O)n2c3ccccc3nc2n1CC(=O)c1ccc(Cl)cc1
 : 20%, 0%

Bioassay records: PubChem, National Center for Advancing Translational Sciences (NCATS)
